HTT promoter inh = HTT promoter inhibition | HEK293 HTT promoter firefly luciferase reporter (activity 0% = vehicle and -100% = no light), 24 h | Potency, µM (series often up to 57.5 µM), for the others: at the top dose activity change, negative = inhibition, actives largely listed as inhibitors | actives 0.93% (n = 48,000); active = well fitted inhibition curve with a large enough effect; inconclusive = small, poorly fitted or top-dose-only effect; inactive = no such curve, though single readings can be large or run the other way; also: nearly all actives have a fitted effect of over 50% in size
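HEK293 Fluc reporter, 2,500 cells/well, 24 h pre-culture; cpds up to 57.5 uM final, 24 h 37 degrees C; Dual-Glo, 10 min RT; normalized vehicle = 0%, zero RLU = -100%.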
PMP22 txn = modulates PMP22 transcription in S16 Schwann cells; S16 Pmp22-F2sN Schwann cells (luciferase reporters placed in the Pmp22 gene), FLuc/NLuc coincidence luminescence, 24 h; Potency, µM (top dose mostly 57.5 µM), inactives show at the top dose activity change, negative = inhibition, actives largely listed as inhibitors; actives 2% (n = 43,000); AID 1508649; active = clear falling dose curves in both reporters; inconclusive = both reporters move, but less clearly or upward; inactive = either reporter flat; the % is the NLuc reporter signal; also: % is scaled to controls: 0 for no effect and ±100 for the full control effect; some results filed as inactive show a strong effect at the top dose
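Rat S16 Pmp22-F2sN cells, 500-1,000/well in phenol red-free DMEM + 10% FBS, compound-treated 24 h (37C, 5% CO2). Luminescence: FLuc read, Stop&Glo added, NLuc read.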
The depositor's hits bear a star; ? = inconclusive; · = no result given; [ ] = another dose, or the depositor's remark. Potency is read from the fitted curve at half-maximal effect. This is a subset; count on the stated rates, not on these rows.

Screens in order – PMP22 txn | HTT promoter inh
CN1c2cc(O)c(N=NC(N)=O)cc2CC1S(=O)(=O)O (configuration not stated)
  · | 6%
Cc1ccc(C2c3[nH]c4ccccc4c3CCN2C(=O)c2cccc(C)c2)cc1 (configuration not stated)
  -28% | ?
COc1ccc(NC(=O)Cn2c(=O)n(Cc3ccc(C(=O)NCc4ccccc4Cl)cc3)c(=O)c3ccccc32)cc1
  ? | 4%
CCOc1cc(C#N)c(NC(=O)Cn2nnc(-c3ccc(C)cc3)n2)cc1OCC
  -25% | -21%
CC(C)(C)C1CCc2c(sc3nc(-c4cc5ccccc5oc4=O)[nH]c(=O)c23)C1 (configuration not stated)
  -16% | 1%
O=C(CSc1nc(=O)n(Cc2cccnc2)c2c1CCC2)Nc1ccc(F)cc1F
  -25% | -19%
Cc1c(-c2cccc(NC(=O)C(C)(C)C)c2)nc2ncccn12
  -13% | 5%
CCN(CC)CCCNC(=O)CN1N=C(c2ccccc2)CCC1=O
  3% | -15%
CCn1c(=O)cc(SCC(=O)NCc2ccc(Cl)cc2)c2ccccc21
  ? | -20%
Cc1ccc2cc3cc(C(=O)N4CCN(c5ccc(Cl)cc5)CC4)oc3nc2c1
  0% | -2%
CC1CCN(S(=O)(=O)c2ccc3c(c2)N(CC(=O)NCCN(C)C)C(=O)CO3)CC1
  -6% | -6%
Cc1c(Cl)cccc1NC(=O)Cn1nc(C(F)(F)F)c2c1CCC2
  -9% | -18%
COc1ccc(C(=O)NC(c2ccc(Cl)cc2)c2cc(Cl)c3cccnc3c2O)cc1 (configuration not stated)
  ? | 18µM*
COc1ccccc1N1CCN(C(=O)c2cc3c(=O)n(C)c4ccccc4c3s2)CC1
  -13% | -6%
CCN(c1ncnc2c1cnn2-c1ccc(C)cc1)C1CCCCC1
  3% | ?
COc1ccc(-c2noc(CN(C(=O)c3ccc(C)cc3C)C(C)C)n2)cc1
  ? | -22%
CCn1c(=O)c2sccc2n2c(CCCC(=O)N3CCN(c4cc(Cl)ccc4C)CC3)nnc12
  ? | -9%
Cc1ccc(Cl)cc1N1CCN(S(=O)(=O)c2ccc3[nH]c4c(c3c2)CCCC4)CC1
  -1% | -20%
CCOc1ccc(Nc2c(S(=O)(=O)c3ccc(C)cc3)cnc3cc(OC)c(OC)cc23)cc1
  ? | ?
Cc1ccc(-n2nc3ccc(NC(=O)c4oc5ccc(C)cc5c4C)cc3n2)cc1
  1% | 7%

The last 2 records of the section above open the next one:
Screens in order – PMP22 txn | HTT promoter inh
CCOc1ccc(Nc2c(S(=O)(=O)c3ccc(C)cc3)cnc3cc(OC)c(OC)cc23)cc1
  ? | ?
Cc1ccc(-n2nc3ccc(NC(=O)c4oc5ccc(C)cc5c4C)cc3n2)cc1
  1% | 7%
COc1ccccc1NC(=O)c1ccccc1NC(=O)c1ccccc1
  ? | -26%
Cc1ccc(-c2cc(C(F)(F)F)n3ncc(-c4ccc(Cl)cc4)c3n2)cc1
  -2% | -12%
Cc1ccc(OCCSc2nc3ccc(NC(=O)c4cccs4)cc3s2)cc1
  -27% | -18%
CCOC(=O)c1c(C)oc2nc(C)nc(NCc3ccccc3OCC)c12
  ? | -2%
CCc1c(C)nc2nncn2c1Nc1cccc(C)c1
  -51% | ?
CC(=O)c1cccc(NC(=O)Cn2cc(C(=O)c3cccc(Cl)c3)c(=O)c3ccc(C)nc32)c1
  ? | -23%
CCOc1ccc(N2C(=O)N(Cc3c(F)cccc3Cl)c3ccccc3S2(=O)=O)cc1
  0% | ?
COCCn1ccc2c(OCC(=O)Nc3ccccc3F)cccc2c1=O
  ? | 0%
Cc1ccsc1CN1CCc2nc(Nc3ccccc3)ncc2C1
  -24% | 30%[activator]
Cc1ccc2nc(COc3cccc(NC(=O)c4ccccc4Cl)c3)cc(=O)n2c1
  1% | 5%
COc1cccc(CNC(=O)CCC(=O)N2Cc3cccc(OC)c3Oc3ncccc32)c1OC
  -10% | -20%
Cc1ccc2c(c1)N(CCC(=O)NCc1ccc(F)cc1)C(=O)CO2
  -8% | -12%
Cc1ccc(NC(=O)CN(C)S(=O)(=O)c2cccc3cccnc23)cc1F
  -20% | -22%
Cc1cc2nn(-c3ccccc3)nc2cc1NC(=O)COc1ccc(Cl)cc1
  -1% | 71%[activator]
Cc1ccccc1CN1C(=O)C(O)(CC(=O)c2cccc(Br)c2)c2ccccc21 (configuration not stated)
  ? | ?
COc1ccc(C(=O)NCc2ccc3c(c2)CCN3C(=O)c2ccncc2)cc1
  ? | -28%
COc1ccc(-n2c(=O)c3sc4ccccc4c3n(CC(=O)Nc3cccc(C)c3)c2=O)cc1
  -40% | 5%
O=C(Cn1c(=O)n(Cc2ccco2)c(=O)c2ccccc21)Nc1ccc(Cl)cc1Cl
  ? | -4%
Cn1cc(C(=O)NCc2ccccc2Cl)c(=O)c2cc(S(=O)(=O)N3CCCCCC3)ccc21
  ? | 0%[11.5 µM]
CCOc1cc2sc(N3CCC(C(=O)Nc4ccc(CC)cc4)CC3)nc2cc1Br
  10% | 101%[activator]
CCc1cnc2c(c1SCCC(C)C)c(=O)n(C)c(=O)n2C
  -13% | ?
CCOC(=O)c1cc(-c2ccc(C)cc2)nn1Cc1ccccc1
  10% | 51%[activator]
Cc1ccccc1C(=O)Nc1ccc2nc(SCCOc3ccccc3)sc2c1
  ? | -19%
O=C(CC1N=C2c3ccccc3N=C(SCc3ccccc3F)N2C1=O)NCc1ccc2c(c1)OCO2 (configuration not stated)
  ? | 0%
Cc1c(C(=O)O)oc2c1-c1nn(Cc3ccc(Cl)cc3)cc1CC2
  -18% | ?
Cc1nc2ccccc2c(=O)n1-c1ccc(NC(=O)C(F)(F)F)cc1
  8% | -19%
Cc1ccc(Cn2c(CNS(=O)(=O)c3c(C)cc(C)cc3C)nc3cccnc32)cc1
  -13% | -22%
Cc1nc2ccccc2n1Cc1ccc(Cl)cc1
  · | -25%
FC(F)(F)c1cccc(Nc2c3c(nc4ccc(Cl)cc24)CCC3)c1
  ? | ?
CCOC(=O)c1c(NC(=O)CSc2cn(CCNC(=O)c3ccc(OC)c(OC)c3)c3ccccc23)sc2c1CCCC2
  -18% | ?
O=C1CC(c2ccc(Br)cc2)c2c(ccc3ccccc23)N1 (configuration not stated)
  -18% | 56%[activator][11.5 µM]
Cc1ccc(CNC(=O)CSCc2ccccc2C)cc1
  -1% | 9%
Cc1nc(N2CCCC2)ncc1C(=O)Nc1ccccc1
  -4% | 1%
CC1CCN(CCCNC(=O)CN2C(=O)CSc3ccc(S(=O)(=O)N4CCOCC4)cc32)CC1
  -20% | -9%
CC1=C(c2ccc(C)c(C)c2)S(=O)(=O)N=C1N1CCN(c2cccc(C(F)(F)F)c2)CC1
  -2% | -10%
Cc1ccc(C)c(NC(=O)Cn2c(=O)n(CC3CCCO3)c(=O)c3ccccc32)c1 (configuration not stated)
  0% | -11%
COc1ccc2oc(=O)cc(CN3CCN(C(=O)c4ccccc4F)CC3)c2c1
  -36% | -11%
CCOC(=O)c1c(C)[nH]c(CCC(=O)NCc2ccc(N(C)C)cc2)c1C
  -19% | ?
Cc1nn(CCCC(=O)Nc2cccc(C(F)(F)F)c2)c(=O)c2nn(-c3ccccc3)c(C)c12
  -20% | -14%
Cc1c(Cl)cccc1NC(=O)N1CCN(C(=O)c2nsc3ccccc23)CC1
  7% | -21%
COc1ccccc1CNC(=O)CCn1nc(C)c2c(C)n(-c3ccccc3)nc2c1=O
  -17% | -16%
Cc1ccc(NC(=O)CCCc2nnc3n(C)c(=O)c4sccc4n23)cc1F
  10% | -6%
CN(C)c1ccc(CNC(=O)C2CCCN(S(=O)(=O)c3ccc4c(c3)oc(=O)n4C)C2)cc1 (configuration not stated)
  -41% | -10%
CC(=O)Nc1ccc(S(=O)(=O)Nc2nc3n(n2)C(c2ccccc2)C=C(c2ccc(Cl)cc2)N3)cc1 (configuration not stated)
  -48% | 1%
CCN(CC)c1ccc(C(=C2C=CC(=[N+](CC)CC)C=C2)c2cc(S(=O)(=O)O)ccc2S(=O)(=O)[O-])cc1
  · | ?
CCCc1nn2c(=O)cc(COC(=O)c3ccc(NC(=O)COc4ccccc4)cc3)nc2s1
  -15% | -9%
Cc1cc(Br)ccc1NC(=O)CSc1c2c(nc3ccccc13)CCC2
  ? | -27%
Cc1cccc(Cn2c(CN3CCC(C(=O)NCCc4ccccc4)CC3)cc3ccccc32)c1
  ? | ?
CN1C(=O)CC(C(=O)Nc2ccc(C(=O)O)cc2)SC1=Nc1ccc(Cl)cc1 (configuration not stated)
  -6% | -1%
Cc1cccc(CNC(=O)CCCN2C(=O)CCn3nc(-c4cccn4C)cc32)c1
  -2% | 0%
Cc1nn(C)c2c1c(-c1ccccc1)cc(=O)n2Cc1ccccc1Cl
  -23% | 0%
Cc1ccc(-n2ncc(C(=O)N3CCc4ccccc4C3)c2C2CCN(C(=O)OC(C)(C)C)CC2)cc1C
  -7% | -4%
CCOC(=O)c1ccccc1NC(=O)Nc1cc2c(cc1N1CCCC1)n(C)c(=O)n2C
  -19% | -18%
O=C(CSc1nc2c([nH]c3ccccc32)c(=O)n1-c1ccc(F)cc1)NC1CCCCC1
  ? | ?
Cc1ccc(NC(=O)CSc2nccn2C2CCCC2)cc1Cl
  -42% | -6%
CCN1CCN(CCCNC(=O)c2cnn(-c3ccc(C)cc3C)c2C2CCN(C(=O)OC(C)(C)C)CC2)CC1
  6% | -19%
CC(=O)N1CCc2c(sc3nc(SCC(C)C)n(-c4ccc(F)c(Cl)c4)c(=O)c23)C1
  ? | -16%
Cc1ccc2c(c1)C(c1ccccc1)N(C(=O)c1ccc(OC(C)C)cc1)CC(=O)N2 (configuration not stated)
  -7% | -16%
Cc1ccc(NCc2cc3cc4c(cc3n(CC(=O)Nc3ccc(C)cc3)c2=O)OCCO4)cc1
  ? | 8%
CCCCN(c1ccccc1)c1ncnc2c1cnn2-c1ccc(Cl)cc1
  -15% | -21%

Going on with the list:
Screens in order – PMP22 txn | HTT promoter inh
Cc1ccc(-n2c(Cc3ccccc3)nnc2SCc2nc(-c3cccs3)no2)cc1C
  ? | ?
Cc1ccc(CN(C(=O)COc2cc(C)c(Cl)c(C)c2)c2ccccn2)o1
  -2% | 5%
COc1ccc(CCNC(=O)CCn2c(=O)c3ccccc3n(Cc3ccccc3F)c2=O)cc1OC
  ? | -16%
CCN(CC)S(=O)(=O)c1ccc2c(c1)c(=O)c(C(=O)NCc1ccccc1OC)cn2C
  ? | 11%
CCN(CC)c1cc2c(cc1F)c(=O)c(S(=O)(=O)c1cc(C)ccc1C)cn2Cc1ccccc1
  ? | -21%
COc1cccc(C(=O)N(Cc2cccc(F)c2)C2CCS(=O)(=O)C2)c1 (configuration not stated)
  17% | -8%
CCCSc1ncc(Cl)c(C(=O)Nc2c(C(=O)Nc3ccccc3)oc3ccccc23)n1
  -5% | -4%
CN1CCN(CCC(=O)Nc2ccc(Cl)cc2)CC1
  2% | -17%
Cc1nn(-c2nc(-c3ccccc3)cc(C(F)(F)F)n2)c(C)c1Cl
  -11% | -20%
O=C1c2oc3ccccc3c(=O)c2C(c2ccccc2F)N1Cc1ccc2c(c1)OCO2 (configuration not stated)
  -25% | -8%
COc1ccc(NC(=O)C2Cc3ccccc3N2C(=O)c2ccccc2)cc1OC (configuration not stated)
  ? | -19%
O=C1CN(C(=O)c2ccc(S(=O)(=O)N3CCCCC3)cc2)C(c2ccc(F)cc2)c2cc(Cl)ccc2N1 (configuration not stated)
  -10% | ?
Cc1cn2c(=O)cc(COc3ccc(Cl)cc3)nc2s1
  -16% | 20%
CC1(C)CC(=O)c2cc(-c3nc(-c4ccc(Cl)cc4)cs3)c(=O)n(-c3cccc(F)c3)c2C1
  0% | -14%
CCOC(=O)c1ccccc1NC(=O)N1CCC(N2CCN(Cc3ccccc3)C(=O)C2=O)CC1
  7% | 2%
COC(=O)c1ccccc1NC(=O)c1ncoc1-c1ccco1
  ? | -16%
Cc1cc(C)cc(-n2c(SCC(=O)Nc3nnc(C)s3)nc3c([nH]c4ccccc43)c2=O)c1
  16µM* | -11%
COc1ccccc1N1CCN(S(=O)(=O)c2ccc(-c3coc(C)n3)cc2)CC1
  0% | -6%
CCOc1ccccc1NC(=O)N1CCN(S(=O)(=O)c2ccc3c(ccn3C)c2)CC1
  -15% | -12%
COc1ccc(Cl)cc1NC(=O)c1cc2c(=O)n3ccccc3nc2s1
  -20% | 7%
CC(=O)c1ccc(NC(=O)CSc2ccc3nnc(CCNS(=O)(=O)c4ccc(C)cc4)n3n2)cc1
  -27% | 0%
COC(=O)c1ccccc1NC(=O)c1ccc2nc(CCc3ccccc3)oc2c1
  2% | 5%

Record cards, as listed above. Order of screens: PMP22 txn | HTT promoter inh
`Cc1nn(-c2nc(-c3ccccc3)cc(C(F)(F)F)n2)c(C)c1Cl` as listed: -11% | -20%
`CC1CCN(S(=O)(=O)c2ccc3c(c2)N(CC(=O)NCCN(C)C)C(=O)CO3)CC1` as listed: -6% | -6%
`CC(=O)N1CCc2c(sc3nc(SCC(C)C)n(-c4ccc(F)c(Cl)c4)c(=O)c23)C1` as listed: ? | -16%
`Cc1ccc(-c2cc(C(F)(F)F)n3ncc(-c4ccc(Cl)cc4)c3n2)cc1` as listed: -2% | -12%
